VACV mCherry inh: vaccinia inhibition (mCherry reporter) | Vaccinia virus mCherry reporter infection, fluorescence; about a quarter of the inactives have no number | Potency, µM (highest dose often 36.5 µM), inactives show at the top dose activity change, negative = inhibition, actives largely listed as inhibitors | 310,000 compounds, 0.63% hits | AID 720579; active = well fitted inhibition curve with a large enough effect; inconclusive = small, poorly fitted or top-dose-only effect; inactive = no such curve, though single readings can be large or run the other way; tested in A549 cells; note: nearly all actives have a fitted effect of over 35% in size; inactives centre near -10
Vaccinia Venus: inhibitors of vaccinia virus (Venus reporter) | 330,000 compounds, 0.46% hits | AID 720580 | Vaccinia virus Venus reporter expression, fluorescence | Potency, µM (series often up to 36.5 µM), for the others: at the highest dose activity change, negative = inhibition, usual class: inhibitors; active means well fitted inhibition curve with a large enough effect; inconclusive means small, poorly fitted or top-dose-only effect; inactive means no such curve, though single readings can be large or run the other way; tested in A549 cells; note: nearly all actives have a fitted effect of over 30% in size; inactives centre near -10
* hit, by the source's call; i = inactive; ? = inconclusive; nt = no result given; [ ] = dose if it differs, or a comment. % is set by controls: 0 for no effect and ±100 for the full control effect; potency is the fitted concentration of half-maximal effect.

compound,VACV mCherry inh,Vaccinia Venus
O=C1CC(c2ccc(F)cc2)c2cc3c(cc2N1)CCC3 (centres undefined),-12%,-22%
CC(C)c1ccccc1NC(=O)c1cccc(NC(=O)c2ccccc2)c1,?,-23%
O=C(Nc1ccc(OCc2cc(=O)n3ccsc3n2)cc1)c1ccc(F)cc1,-4%,-3%
CCCn1cc(C(CC(=O)O)C(=O)O)c2ccccc21 (centres undefined),-12%,-3%
COc1cc2cncc(Cc3ccccc3)c2cc1O,-11%,1%
COc1ccc(NC(=O)C(OC(=O)c2ccc([N+](=O)[O-])o2)c2ccccc2)cc1Cl (centres undefined),-5%,-20%
COc1c(C)cc(Br)cc1C(=O)NC(=S)Nc1ccc(Cl)c(C(=O)O)c1,-4%,-4%
COc1ccc(C(=O)CC(=O)C(=O)Nc2cccc([N+](=O)[O-])c2C)cc1,-12%,13%
CC(=O)c1ccc(-n2c(CCC(=O)O)ccc2-c2ccc(C)cc2)cc1,-3%,-11%
Cc1nc(C)n(CC(=O)N2CCCC(C(=O)c3cccc4ccccc34)C2)n1 (centres undefined),-4%,-20%
CC(=O)Nc1ccc(Nc2nnc(-c3ccc(O)cc3)c3ccccc23)cc1,-15%,-4%
Nc1nonc1C(=O)OCC(=O)c1ccc(Cl)cc1,-11%,0%

The closing 2 records of the section before come first, to join the parts:
compound,VACV mCherry inh,Vaccinia Venus
CC(=O)Nc1ccc(Nc2nnc(-c3ccc(O)cc3)c3ccccc23)cc1,-15%,-4%
Nc1nonc1C(=O)OCC(=O)c1ccc(Cl)cc1,-11%,0%
Cc1cccc(NC(=O)CSc2ccc(-c3sc(-c4ccccc4)nc3C)nn2)c1C,-19%,-14%
CSc1ccc(S(=O)(=O)N2CCC(C(=O)NCc3ccncc3)CC2)cc1,-12%,5%
COc1cc(-c2ccc(N3C(c4ccsc4)=Cc4ccc(F)cc4C3c3c[nH]c4ccc(C#N)cc34)cc2)cc(OC)c1OC (centres undefined),i,-10%
CCc1ccc(NC(=O)CC2C(=O)N(c3ccc(Cl)cc3)C(=O)N2Cc2ccco2)cc1 (centres undefined),-12%,-14%
COc1ccc(N2C(=O)/C(=C/c3cccs3)NC2=S)cc1,-6%,-7%
COc1ccc(CNC(=O)CSc2nc3ccc(OC)cc3[nH]2)cc1,i,-3%
COc1cccc(C(=O)Nc2nc(C)cs2)c1,-14%,-7%
CCOC(=O)c1c(-c2cccc(C)c2)csc1NC(=O)c1c(-c2ccccc2)noc1C,nt,-30%
COc1ccccc1NC(=O)Nc1nc(CC(=O)NCc2c(F)cccc2F)cs1,-5%,-19%
O=C(Cc1ccccc1)NC1CCN(C(=O)NCc2ccccc2)CC1,-13%,-6%
CC1=NN(Cc2ccccc2)C(=O)/C1=C/c1ccc(N(C)C)cc1,-5%,4%
O=C(Nc1ccc(-c2cnco2)cc1)c1ccc(F)cc1F,i,-16%

Next structures follow.
compound,VACV mCherry inh,Vaccinia Venus
COc1ccc(CNc2ccc(S(=O)(=O)N3CCN(C)CC3)cn2)cc1OC,-12%,-8%
O=C(NC1CCCC1)C(c1ccccn1)N(Cc1ccc(F)cc1)C(=O)c1csnn1 (centres undefined),-27%,13%
COc1ccc(S(=O)(=O)N2CCN(c3cccc(C)c3C)CC2)cc1,-15%,-4%
CCOc1ccc(C(=O)OCC(=O)NCc2ccco2)cc1OCC,nt,-6%
CC(C)S(=O)(=O)c1csc(NC(=O)Nc2ccc(Cl)cc2)c1Cl,i,-34%
O=C(Cn1cnc2ccc(Cl)cc2c1=O)c1cccs1,-12%,-13%
N#CCCN(Cc1cccnc1)CN1C(=O)c2ccccc2C1=O,i,-12%
CC(=O)c1ccc(NC(=O)Cc2cccs2)cc1,-18%,-3%
Cc1c(C(=S)NC(=O)C2CC2)c(=O)n(-c2ccccc2)n1C,0%,-22%
O=S(=O)(c1ccccc1)c1nc(-c2ccc(F)cc2)oc1N1CCCCCC1,-21%,-8%
CCc1ccccc1N1C(=O)N(Cc2ccccc2C)c2ccccc2S1(=O)=O,?,?
Cc1ccc(NC(=O)c2nc[nH]c2C(=O)N2CCc3ccccc3C2)cc1,-1%,-2%

Additional structures follow.
compound,VACV mCherry inh,Vaccinia Venus
Cc1ccccc1NC(=O)c1ccc2ccccc2c1,-27%,-17%
COc1ccccc1NS(=O)(=O)c1cc(NC(=O)c2ccc3ccccc3n2)ccc1Cl,-12%,-8%
CCC(Sc1nc(-c2ccc(F)cc2)nc2c1Cc1c(CO)cnc(C)c1O2)C(=O)Nc1ccc(F)cc1 (centres undefined),-6%,-12%
c1cc(-c2cc3cc(N4CCOCC4)ccc3o2)cs1,i,-3%
CCc1ccccc1N(C(C)=O)c1nc(CCl)cs1,i,-28%
Cn1cc(S(=O)(=O)Nc2ccc(OC(F)(F)F)cc2)c(=O)n(C)c1=O,i,5%
CC1CCCC(C(=O)O)N1C(=O)CCSC(=O)c1ccccc1 (centres undefined),i,-5%
O=C(NC1CCS(=O)(=O)C1)OC1CCCCC1 (centres undefined),?,0%
CCCC(=O)NC1=C(C#N)C2(CCCCC2)Cc2ccccc21,nt,-11%
O=C(NNS(=O)(=O)c1ccccc1)c1cccnc1,-14%,6%
CC1CCCCN1C(=O)CSc1c2c(nc3cc(Cl)ccc13)CCCC2 (centres undefined),-13%,-4%
Cc1cc(C)cc(NS(=O)(=O)c2ccc3[nH]cc(C(=O)N4CCc5ccccc54)c(=O)c3c2)c1,i,-16%

Next section
compound,VACV mCherry inh,Vaccinia Venus
CC(NC(=O)C12CC3CC(CC(C3)C1)C2)C(=O)N/N=C/C1=C(N2CCOCC2)C(=C\c2cccc([N+](=O)[O-])c2)/CC1 (centres undefined),-5%,-8%
COc1cc(S(=O)(=O)NCCc2c(C)[nH]c3ccccc23)c(C)cc1C,-4%,-17%
COc1ccccc1C1/C(=C(/O)c2ccc(C)cc2)C(=O)C(=O)N1CC(C)O (centres undefined),nt,1%
O=C(Cc1ccccc1)N[C@@H](Cc1ccccc1)C(=O)O,i,-6%
CC[C@@]1(C(=O)OC)N[C@H](CN(C)C(=O)Nc2ccc(Cl)cc2)[C@@H]2C(=O)N(C)C(=O)[C@@H]21,-13%,6%
COc1ccc(CCC(=O)NO)cc1,-8%,-14%
CCc1cc2c(N=Nc3c(O)[nH]c4ccccc34)ncnc2s1,i,-8%
COc1ccc(CN2C(=O)c3ccccc3C2=O)cc1C(=O)OCC(=O)NC1CCCCC1,-15%,-1%
CC(=NCCc1c(C)[nH]c2ccc(C)cc12)C1=C(O)CC(c2ccccc2)CC1=O (centres undefined),?,?
Cc1ccc(C(=O)n2c(-c3ccccc3)cnc2SCC(=O)Nc2ccccc2)cc1,i,-10%
C=CCOc1ccc(CNn2cn[nH]c2=S)cc1,-4%,-4%
CC1=C(C(N)=O)C(c2cccnc2)n2nc(-c3cccc(C)c3)nc2N1 (centres undefined),-20%,-4%

(more compounds)
compound,VACV mCherry inh,Vaccinia Venus
COc1cccc(C(c2c(O)cc(C)n(Cc3ccco3)c2=O)N2CCN(c3ccccc3)CC2)c1 (centres undefined),-12%,-4%
CCCN1CCC(=NNc2ccc(C(=O)O)cc2)CC1,-6%,15%
CCC1CCCCN1C(=O)c1sc(-n2nc(C)c(Cc3ccccc3)c2C)nc1C (centres undefined),-15%,-16%
Cc1ccc(S(=O)(=O)N2CCC(C(=O)N[C@@H](C)C(=O)Nc3ccc(F)cc3)CC2)cc1,0%,-24%
Cc1ccccc1NC(=S)NC1CCN(Cc2ccccc2)CC1,-25%,-13%
Cc1oc(S(=O)(=O)N2CCCC2)cc1C(=O)Nc1ccccc1,-15%,-5%
O=C(Nc1ccccc1N1CCCCC1)c1ccc(-c2cc(Cl)ccc2Cl)o1,9%,-1%
CN(C)C(=O)CCc1ccc2c3c([nH]c2c1)[C@]1(CCC2CCCC2)[C@@H](C(=O)N2CCOCC2)C[C@H](CC(=O)NCCCn2ccnc2)C(=O)N1CC3,-11%,0%
CCOc1ccc(C(=O)Nc2ccc3oc(-c4ccncc4)nc3c2)cc1,-8%,7%
O=C(N/N=C/c1ccc(-c2ccccc2[N+](=O)[O-])o1)[C@H]1C[C@@H]1c1ccccc1,i,6%
COc1cc(OC)c(OC)cc1/C=C/c1ccc2ccccc2[n+]1C,-14%,27%
O=C(O)c1cccc(-c2csc(C(O)c3ccc(F)c(F)c3)n2)c1 (centres undefined),10%,3%

Later entries:
compound,VACV mCherry inh,Vaccinia Venus
Cc1ccc(S(=O)(=O)N(C)C)cc1-n1c(SCC(=O)Nc2ccccc2)nc2ccccc2c1=O,-14%,-4%
c1ccc2c(c1)nc(N1CCCCCC1)c1ccccc12,-20%,-8%
CC(C)[C@H](NC(=O)c1cccc(S(=O)(=O)N2CCOCC2)c1)C(=O)NCc1ccc(F)cc1,-14%,-6%
CN(/C=C/C(=C\C=[N+](C)c1ccccc1)OCCCS(=O)(=O)[O-])c1ccccc1,3%,17%
Cc1cccc(Nc2nc(-c3ccc(F)c(C)c3)cs2)n1,-16%,-2%
CCOC(=O)C1=C(C)NC(C)=C(C(=O)OCC)C1C(=O)OCC(=O)NCCc1ccc(S(N)(=O)=O)cc1,-14%,-12%
Cn1nc(C(F)(F)F)cc1C(=O)Nc1ccc(-c2ccno2)cc1,-19%,-13%
CCC1CCCCN1C(=O)Cn1nc([N+](=O)[O-])c(Cl)c1C (centres undefined),i,-5%
Cc1ncc(CO)c2c1Oc1nc(-c3ccc(Cl)cc3)nc(SCC(=O)N3CCCCC3)c1C2,-13%,-9%
CC(=O)c1cccc(NC(=O)C2Cc3c(-c4ccccc4)ccnc3O2)c1 (centres undefined),i,-4%
COc1ccccc1NC(=S)Nc1ccccn1,-7%,-21%
CC(C)Sc1nc(N)c2c3c(sc2n1)CN(C)CC3,-20%,-12%

Later entries:
compound,VACV mCherry inh,Vaccinia Venus
C[C@@H]1CN([C@H](C)CO)C(=O)CCCn2cc(nn2)CO[C@H]1CN(C)C(=O)Oc1cccc2ccccc12,-4%,-7%
CCCC(=O)N1CCN(c2ccc(NC(=O)c3ccc(N4CCCC4)c([N+](=O)[O-])c3)cc2Cl)CC1,-8%,-9%
COc1ccc(C)cc1-n1nnnc1SCc1nc2ccccc2s1,-27%,-20%
O=C(Nc1cccc(-c2cn3cccnc3n2)c1)Nc1ccccc1F,-16%,-18%
COc1ccc(CCNC(=O)c2cc(C3CC3)on2)cc1OC,-4%,0%
COc1ccc(S(=O)(=O)N(C)C[C@H]2Oc3c(NS(=O)(=O)c4cn(C)cn4)cccc3C(=O)N([C@H](C)CO)C[C@@H]2C)cc1,i,0%
Cc1ccc(C(C)C)c(OCCCCCN2CCOCC2)c1,-5%,-2%
N#Cc1c[nH]n2c(NC3CCCC3)c(-c3cccc(Cl)c3)nc12,-13%,-9%
O=C(CCCN1C(=O)c2ccccc2C1=O)Nc1nncs1,nt,-9%
Cc1onc(-c2ccccc2)c1C(=O)N=C(N)c1ccc(Cl)cc1,i[7.34 µM],-14%[7.34 µM]
O=Cc1ccc(OCC(=O)N2CCOCC2)cc1,-8%,-6%
CCOc1ccc(N(CC(=O)NC2CCCCC2)C(=O)CCC(=O)Nc2ccccn2)cc1,7%,-3%

Two records drawn at random from those above:
compound,VACV mCherry inh,Vaccinia Venus
C[C@@H]1CN([C@H](C)CO)C(=O)CCCn2cc(nn2)CO[C@H]1CN(C)C(=O)Oc1cccc2ccccc12,-4%,-7%
COc1ccc(CCC(=O)NO)cc1,-8%,-14%

Some of the entries above in a different format.
> N#Cc1c[nH]n2c(NC3CCCC3)c(-c3cccc(Cl)c3)nc12
  VACV mCherry inh: -13%	Vaccinia Venus: -9%
> Cc1ccc(C(C)C)c(OCCCCCN2CCOCC2)c1
  VACV mCherry inh: -5%	Vaccinia Venus: -2%
> Cc1onc(-c2ccccc2)c1C(=O)N=C(N)c1ccc(Cl)cc1
  VACV mCherry inh: i[7.34 µM]	Vaccinia Venus: -14%[7.34 µM]
> CCOc1ccc(N(CC(=O)NC2CCCCC2)C(=O)CCC(=O)Nc2ccccn2)cc1
  VACV mCherry inh: 7%	Vaccinia Venus: -3%

Remaining list, next part.
compound,VACV mCherry inh,Vaccinia Venus
CCCOc1ccc(N2C(=O)CC(N3CCC(c4nncn4CC)CC3)C2=O)cc1 (centres undefined),nt,0%
O=C1c2oc3ccccc3c(=O)c2C(c2cccs2)N1CCCN1CCOCC1 (centres undefined),nt,-21%
Cc1ccc(C)c(NC(=O)CSc2n[nH]c(-c3ccccn3)n2)c1,7.9µM*,?
Cc1ccccc1NC(=O)CSc1nc2c(c(=O)n(C)c(=O)n2C)n1C,1%,1%
Oc1c(CN2CCOCC2)cc(CN2CCOCC2)c(O)c1O,-2%,8%
NNc1cc2c(nn1)CCN(C(=O)c1ccccc1)C2,-3%,-5%
Oc1ccccc1C(Nc1nccs1)c1ccc2cccnc2c1O (centres undefined),8.9µM*,?
CCC(C(=O)Nc1ccc(C(C)=O)cc1)n1cnc2nc3c(cc2c1=O)CCCC3 (centres undefined),-15%[7.34 µM],-7%
O=C(Cn1nc(-c2ccccc2)c2ccccc2c1=O)NCC1CCCO1 (centres undefined),i,-7%

Compound activity: PubChem BioAssay, National Center for Advancing Translational Sciences (NCATS)
